# Screening results as filed in PubChem BioAssay.
# Cruzain inh Det: qHTS Assay for Promiscuous and Specific Inhibitors of Cruzain (with detergent); purified cruzain, Z-FR-AMC fluorescence, 0.01% Triton; 0.43% of 200,000 active; Potency, µM, for the others: max response, negative = inhibition, most hits filed as inhibitors; AID 1478, 2009; active = well fitted curve in the direction sought with a large enough effect; inconclusive = small, poorly fitted or top-dose-only effect, or another doubt; inactive = no such curve, though single readings can be large; an effect the other way counts as inactive or inconclusive;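 note: plate controls were neutral wells for no effect and buffer without enzyme for full effect; nearly all actives have a fitted effect of over 40% in size; top concentration of the series not given in the record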
# Target sequence (P25779 123-467 limits assumed): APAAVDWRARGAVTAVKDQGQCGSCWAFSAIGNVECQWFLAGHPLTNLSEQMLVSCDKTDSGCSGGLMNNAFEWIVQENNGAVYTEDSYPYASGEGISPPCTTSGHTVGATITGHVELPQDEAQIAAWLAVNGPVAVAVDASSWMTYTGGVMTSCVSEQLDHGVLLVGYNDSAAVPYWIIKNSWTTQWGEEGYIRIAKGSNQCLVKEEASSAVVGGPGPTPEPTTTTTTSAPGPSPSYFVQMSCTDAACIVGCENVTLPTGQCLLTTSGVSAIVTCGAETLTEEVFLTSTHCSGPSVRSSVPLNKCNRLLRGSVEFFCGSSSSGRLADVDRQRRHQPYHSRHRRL
#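 Detergent-containing run (0.01% Triton X-100) in acetate buffer pH 5.5 with 5 mM DTT: enzyme at 1.5 nM final, 15 min compound preincubation at room temperature, then 2 uM Z-FR-AMC substrate. Activity taken as 60 s fluorescence increase at 360/450 nm.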
# Marburg entry inh: qHTS for inhibitors of binding or entry into cells for Marburg Virus; Marburg virus pseudotyped entry inhibition, cell reporter; control for the full effect not named in the record; about a third of the inactives were read at about 46 µM; Potency, µM (doses to about 37.8 µM), for the others: at the highest dose activity change, negative = inhibition, most hits filed as inhibitors; 1.8% of 300,000 active; AID 540276, 2011; active = well fitted inhibition curve with a large enough effect; inconclusive = small, poorly fitted or top-dose-only effect, or effect the other way; inactive = flat fitted curve, though single readings scatter; tested in HEK293 cells; about a fifth of its hits are not listed in these tables; note: % is set by controls: 0 for no effect and ±100 for the full control effect; luciferase read-out
# Cruzain inh noDet: qHTS Assay for Promiscuous and Specific Inhibitors of Cruzain (without detergent); Cruzipain (Trypanosoma cruzi), P25779; purified cruzain, Z-FR-AMC fluorescence, no detergent; Potency, µM, for the others: max response, negative = inhibition, most hits filed as inhibitors; 2.3% of 200,000 active; active = well fitted curve in the direction sought with a large enough effect; inconclusive = small, poorly fitted or top-dose-only effect, or another doubt; inactive = no such curve, though single readings can be large; an effect the other way counts as inactive or inconclusive;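 note: plate controls were enzyme without inhibitor for no effect and buffer without enzyme for full effect; nearly all actives have a fitted effect of over 40% in size; top concentration of the series not given in the record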
#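 Detergent-free condition (0.00005% Triton X-100) in acetate buffer pH 5.5 with DTT. 1.5 nM enzyme and compound were pre-mixed 15 min, then 2 uM Z-FR-AMC substrate added; reaction progress from fluorescence change between first and third reads (60 s).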
# NS1 inh: qHTS Assay for Inhibitors of Influenza NS1 Protein Function. S. cerevisiae slowed by influenza A NS1, growth recovery by OD600. Potency, µM (doses to about 46.1 µM), for inactives: top-dose activity, positive = more growth. 0.4% of 270,000 active. AID 2326, 2010; note: actives are rising curves; nearly all actives have a fitted effect of over 50% in size
#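 Recovery from NS1-induced slow growth read by OD600 in budding yeast switched to galactose assay medium (pH 6.0, -URA) at 1:100 dilution. Compound 23 nl per well; the matching strain lacking NS1 serves as control.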
# Lassa entry inh: qHTS for Inhibitors of binding or entry into cells for Lassa Virus; Lassa virus pseudotype entry inhibition, cell reporter; control for the full effect not named in the record; Potency, µM (top dose mostly 37.9 µM), without a hit: at the top dose activity change, negative = inhibition, actives largely listed as inhibitors; 1.2% of 300,000 active; active means well fitted inhibition curve with a large enough effect; inconclusive means small, poorly fitted or top-dose-only effect, or effect the other way; inactive means flat fitted curve, though single readings scatter; tested in HEK293 cells; note: % is set by controls: 0 for no effect and ±100 for the full control effect; nearly all actives have a fitted effect of over 50% in size; luciferase read-out
# RE007 growth inh: qHTS Assay for Inhibitors of the HIV-1 protein Vpr; Potency, µM (highest dose often 92.2 µM), inactives show top-dose activity change, negative = less growth; 0.21% of 360,000 active; S. pombe RE007 Vpr strain, BacTiter-Glo ATP luminescence, 24 h; control for the full effect not named in the record; active = well fitted falling curve with a large enough effect; inconclusive = small, poorly fitted or top-dose-only effect; inactive = no such curve, though single readings can be large or run the other way;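 note: % is set by controls: 0 for no effect and ±100 for the full control effect; nearly all actives have a fitted effect of over 50% in size; the assay follows cell death caused by Vpr and the record does not say whether a fall means rescue or toxicity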
#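 Fission yeast strain RE007, carrying one chromosomally integrated HIV-1 vpr copy, was seeded at OD 0.01 in PMG+AL medium with 23 nL pinned compound. After 24 h at 30 °C and 99% humidity, viability was read by BacTiter-Glo luminescence.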
# StopGo reporter: High Throughput Screening for Foot and Mouth Disease Virus Antivirals; human cells with a luciferase reporter of 2A StopGo recoding; control for the full effect not named in the record; 1.2% of 410,000 active; AID 1159524, 2015; Potency, µM (series often up to 57.9 µM), without a hit: at the top dose signal change, negative = less light; active = well fitted falling curve with a large enough effect; inconclusive = small, poorly fitted or top-dose-only effect; inactive = no such curve, though single readings can be large or run the other way; tested in HEK293T cells; note: % is set by controls: 0 for no effect and ±100 for the full control effect; nearly all actives have a fitted effect of over 45% in size; luciferase light after 4 h
# SARS PLpro yeast: qHTS of Yeast-based Assay for SARS-CoV PLP. S. cerevisiae expressing SARS-CoV PLpro, growth rescue; control for the full effect not named in the record. Potency, µM (highest dose often 32.9 µM), for inactives: at the highest dose activity, positive = growth rescue. 0.19% of 330,000 active. AID 485353, 2010; note: 0% is about no effect; nearly all actives have a fitted effect of over 55% in size; growth read by luminescence after 48 h
# An asterisk follows results filed as active; ? = inconclusive; · = not tested or not shown; & = joins results of further samples; [ ] = dose if it differs, or a comment. Unless noted, calls come from the whole dose curve; as a rule, active means well fitted rising curve with a large enough effect; inconclusive means small, poorly fitted or top-dose-only effect; inactive means no such curve, though single readings can be large or run the other way. Potency is the fitted concentration of half-maximal effect. An unsorted share of the library; any-hit rate near 4.7%.
no.	Molecule	Cruzain inh Det	Marburg entry inh	Cruzain inh noDet	NS1 inh
1	CC(Sc1ncnc2sc(-c3ccccc3)cc12)C(=O)NCC1CCCO1 (configuration not stated)	·	?	·	·
2	CCOC(=O)c1cnc2ccccc2c1NCCO	-4.3%	12%	-8%	-5%
3	CCOc1ccccc1N(CC(=O)NC1CCCCC1)S(=O)(=O)c1ccccc1	·	?	·	-14%
4	CCOC(=O)COc1ccccc1/C=C1/NC(=O)NC1=O	-6.5%	-1%	-11%	3%
5	CCN(CC)Cc1c(C(=O)N/N=C/c2cccs2)nnn1-c1nonc1N	·	-4%[46.1 µM]	·	2%
6	O=C(N/C(=C/c1cccnc1)C(=O)N1CCOCC1)c1ccccc1Cl	·	26%[46.1 µM]	·	0%
7	Nc1c(C(=O)NCc2ccco2)nnn1CC(=O)Nc1ccccc1	1.9%	9%	4%	21%
8	COc1ccccc1/C=C/c1nc(C#N)c(N2CCCCCC2)o1	-18%	-19%[46.1 µM]	-2%	·
9	O=C(Nc1ccc(N2CCCC2)cc1)c1ccc2ccccc2c1	-23%	-7%	16µM*	?
10	CC(OC(=O)C1=COCCO1)C(=O)c1ccc(C(C)(C)C)cc1 (configuration not stated)	·	-1%	·	·
11	O=C(NC1CCCC1)C(c1ccccc1)N(C(=O)c1ccco1)C1CCCC1 (configuration not stated)	-4.4%	-22%	15%	-10%
12	O=C(CSc1nncs1)Nc1ccc(Cl)cc1C(F)(F)F	·	-12%	·	·

no.	Lassa entry inh	RE007 growth inh	StopGo reporter	SARS PLpro yeast
1	?	2%	10%	-9%
2	?	6%	-17%	2%
3	-7%	-19%	22%	-3%
4	0%	-13%	-15%	2%
5	-6%	-10%	11%	0%
6	-6%[46.1 µM]	4%	-6%	0%
7	9%	0%	-10%	-9%
8	?	·	9%	·
9	0%	5%	5%	-3%
10	-5%	4%	30%	-16%
11	-2%	-10%	·	-14%
12	1%	6%	0%	-3%

# 4 records picked at random from those above, as already listed:
no.	Molecule	Cruzain inh Det	Marburg entry inh	Cruzain inh noDet	NS1 inh
1	CC(Sc1ncnc2sc(-c3ccccc3)cc12)C(=O)NCC1CCCO1 (configuration not stated)	·	?	·	·
9	O=C(Nc1ccc(N2CCCC2)cc1)c1ccc2ccccc2c1	-23%	-7%	16µM*	?
2	CCOC(=O)c1cnc2ccccc2c1NCCO	-4.3%	12%	-8%	-5%
3	CCOc1ccccc1N(CC(=O)NC1CCCCC1)S(=O)(=O)c1ccccc1	·	?	·	-14%

no.	Lassa entry inh	RE007 growth inh	StopGo reporter	SARS PLpro yeast
1	?	2%	10%	-9%
9	0%	5%	5%	-3%
2	?	6%	-17%	2%
3	-7%	-19%	22%	-3%

# The list continues.
no.	Molecule	Cruzain inh Det	Marburg entry inh	Cruzain inh noDet	NS1 inh
13	CN(C)c1ccc(C2NC(=O)c3ccccc3N2)cc1 (configuration not stated)	·	10µM*	·	-12%
14	O=C(NC1CCN(C(=S)NCc2ccco2)CC1)c1ccc(F)cc1	0.6%	22%	-5%	-3%
15	CCOC(=O)CN1C(=O)C(=O)c2cc(C)ccc21	-1.8%	-20%	-4%	-16%
16	CC(=O)c1ccc(NC(=S)N2CCN(c3cccc(Cl)c3)CC2)cc1	·	-10%[46.1 µM]	·	3%
17	CCOC(=O)/C(C#N)=C/c1c(N2CCN(c3ccc(OC)cc3)CC2)nc2c(C)cccn2c1=O	·	?	·	9%
18	CCCCCC(=O)Nc1ccc(C(=O)CN2C(=O)NC3(CCCCCC3)C2=O)cc1	·	14%[46.1 µM]	·	·
19	O=C(CCn1c(=O)c2cccn2c2cccnc21)NCc1cccc(Cl)c1	·	11%[46.1 µM]	·	0%
20	O=C(NCc1ccc2c(c1)OCO2)C1CCC(CNS(=O)(=O)c2ccc(Cl)cc2)CC1 (configuration not stated)	1.3%	6%	-1%	0%
21	c1ccc(N2CCN(Cc3cn4cccnc4n3)CC2)cc1	-1.2%	·	-11%	8%
22	Cc1ccc(C(=O)NNC2=NC(C)(C)Cc3ccccc32)cc1	·	·	·	0%
23	O=S(=O)(NC1CCCCCCC1)c1ccccc1	·	2%	·	-10%
24	CCOC(=O)c1ccc(NC(=O)COC(=O)c2cccc(Oc3ccccc3)c2)cc1	-3.2%	12%	-7%	-5%

no.	Lassa entry inh	RE007 growth inh	StopGo reporter	SARS PLpro yeast
13	?	9%	21%	-1%
14	5%	18%	·	3%
15	2%	-1%	-4%	-16%
16	3%	3%	-23%	0%
17	?	-3%	-5%	-2%
18	-7%	30%	-8%	-7%
19	28%[46.1 µM]	-10%	2%	21%
20	0%	5%	·	-1%
21	·	0%	-2%	-1%
22	·	-15%	-16%	0%
23	11%	-9%	55%[activator]	0%
24	9%	8%	-13%	0%

# Continued:
no.	Molecule	Cruzain inh Det	Marburg entry inh	Cruzain inh noDet	NS1 inh
25	COc1ccccc1Nc1nc2ccc(C)cc2n2cnnc12	·	·	·	3%
26	O=C(O)Cn1c(SCCOc2ccccc2F)nc2ccccc21	-2.4%	3%	-11%	-5%
27	CCS(=O)(=O)N1CCc2cc(C(=O)NCc3ccc(Cl)cc3)ccc21	-2.7%	0%[46.1 µM]	-5%	·
28	Cc1ccc(S(=O)(=O)N2CCC(C(=O)NCCC3=CCCCC3)CC2)cc1C	·	?	·	·
29	CCOc1ccc(NS(=O)(=O)c2ccc3c(c2)CCN3C(=O)C2CCC2)cc1	-2.2%	?	5%	-2%
30	COc1ccccc1NC(=O)CSc1nncn1N	·	-3%	·	2%
31	O=C(O)c1ccc2c(=O)n3c(nc2c1)/C(=C/c1ccc(Cl)c([N+](=O)[O-])c1)CC3	·	?	·	0%
32	Cc1ccc(OCCn2c(-c3ccc(Br)cc3)nc3ccccc3c2=O)cc1C	-1.4%	4%[46.1 µM]	5%	·
33	CC1(C)CC(=O)C(C=NCCN2CCN(C(=O)c3ccccc3)CC2)=C(O)C1	2.3%	?	2%	3%
34	Cc1cccc(NS(=O)(=O)c2ccc3c(c2)CCCN3C(=O)C2CCC2)c1C	-6.3%	·	-6%	·
35	O=C(O)c1ccc(N/N=C/c2ccc(-c3cc(Cl)ccc3Cl)o2)cc1	·	·	·	2%
36	COc1ccc(C(=O)Nc2cccc(C(=O)Nc3cc(C)ccn3)c2)cc1	·	?	·	·

no.	Lassa entry inh	RE007 growth inh	StopGo reporter	SARS PLpro yeast
25	·	?	18%	0%
26	9%	-1%	-2%	0%
27	-3%[46.1 µM]	·	-25%	·
28	-20%	-19%	-4%	-8%
29	?	-12%	·	-2%
30	-5%	2%	-8%	1%
31	17%	1%	24%	1%
32	6%[46.1 µM]	·	17%	·
33	?	-7%	9%	-2%
34	-16%[46.1 µM]	·	-24%	·
35	·	-20%	-29%	-9%
36	-4%[46.1 µM]	-11%	21%	·

# New compounds follow:
no.	Molecule	Cruzain inh Det	Marburg entry inh	Cruzain inh noDet	NS1 inh
37	O=C(NCCc1c[nH]c2ccccc12)c1cnc2n(c1=O)CCS2	-8.2%	·	-2%	-1%
38	O=c1[nH]c(CN2CCN(S(=O)(=O)c3ccc4c(c3)OCCO4)CC2)nc2sc3c(c12)CCCC3	-8.3%	-28%	-27%	2%
39	Cc1nnc(N2C(=O)c3oc4ccccc4c(=O)c3C2c2ccc(Cl)cc2)s1 (configuration not stated)	1.1%	·	7%	·
40	Cc1cc(C(=O)OCCN2C(=O)c3ccccc3C2=O)c2ccccc2n1	-6.6%	8%	?	-46%
41	CCOc1ccc(-c2nnc(SCC(=O)Nc3ccccc3C(F)(F)F)o2)cc1	-3.5%	7%[46.1 µM]	?	·
42	CCc1ccc(OCC(=O)Nc2cccc3c2CCCC3)cc1	-2.4%	-3%	-3%	-16%
43	CCn1c(SCC(=O)Nc2ccccc2)nnc1-c1ccc(S(=O)(=O)N2CCOCC2)cc1	-0.2%	-7%&-7%	?	-12%
44	Cn1nc(-c2ccccc2)cc1NC(=O)CCCC(=O)O	·	-1%	·	1%
45	Cc1ccc(-n2nnc(-c3nsc(NC(=O)c4ccccc4C)n3)c2C)cc1Cl	-1.5%	·	-5%	·
46	Cc1cccc(N(CC(=O)NC2CCCCC2)C(=O)c2csnn2)c1	·	11%[46.1 µM]	·	4%
47	Cc1cc(C(=O)N2CCN(c3ccccn3)CC2)no1	0.1%	3%	-4%	6%
48	CCc1nccn1CCC(=O)N1CCCC(N2CCN(c3cccc(Cl)c3)CC2)C1 (configuration not stated)	·	·	·	1%

no.	Lassa entry inh	RE007 growth inh	StopGo reporter	SARS PLpro yeast
37	·	-3%	-9%	-10%
38	-2%	5%	-8%	11%
39	30%[46.1 µM]	·	5%	·
40	11%	11%	?	-4%
41	-7%[46.1 µM]	·	2%	·
42	10%	-9%	-4%	29%
43	13%	-9%	?	12%
44	1%	2%	4%	0%
45	-29%[46.1 µM]	·	-9%	·
46	?	-11%	30%	-2%
47	-1%	-15%	6%	-1%
48	·	14%	33%[activator]	-1%

# Additional structures:
no.	Molecule	Cruzain inh Det	Marburg entry inh	Cruzain inh noDet	NS1 inh
49	CCOC(=O)N1CCN(S(=O)(=O)c2ccc(C(=O)N(CCN(CC)CC)c3nc4ccc(C)cc4s3)cc2)CC1	·	?	·	-14%
50	CCOc1ccc(C(=O)Nc2ccccc2N2CCCC2)cc1	1.4%	3%	-7%	-11%
51	COc1ccc(-c2[nH]ncc2CN2CCC(C(=O)N3CCOCC3)CC2)c(F)c1	·	8%	·	0%
52	COc1cccc(C(=O)NCC2CCN(c3ccc(S(=O)(=O)N4CCOCC4)cc3)CC2)c1	0.8%	-3%&-14%	9%	-7%

no.	Lassa entry inh	RE007 growth inh	StopGo reporter	SARS PLpro yeast
49	24%	-1%	1%	-2%
50	-8%	-13%	19%	4%
51	1%	11%	-5%	0%
52	?	-6%	?	2%
